Resorufin fluor: resorufin region autofluorescence. Compound fluorescence, resorufin region 547/598 nm, buffer; stronger effect = higher value. 59,000 tested, 0.04% active. AID 588. max dye-equivalent concentration, M; active = above 10 nM dye equivalent; inconclusive = 1 to 10 nM; inactive = 1 nM or less; a few of its hits are not listed in these tables; note: highest value over a series up to 38 µM
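Compounds in 100 mM Tris buffer, pH 8.0, incubated 15 min at room temperature, then read with 547 nm excitation and 598 nm emission filters. Fluorescence was converted to dye-equivalent concentration using an on-plate six-point resorufin standard curve.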
AID923: qHTS Assay for Allosteric/Competitive Inhibitors of Caspase-1: Spectroscopic Profiling in AFC Spectral Region | compound fluorescence, AFC spectral region (405/520 nm); almost no hit is shown here | Potency, µM (series often up to 57.5 µM), for the others: at the top dose fluorescence increase, most hits filed as activators | 75,000 tested, 1.1% active; active = well fitted activation curve with a large enough effect; inconclusive = small, poorly fitted or top-dose-only effect;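 note: potency is the fitted concentration of half-maximal effect; 0% is about no effect; scaled to a free AFC standard on each plate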
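Compound autofluorescence profiled at 405 nm ex/520 nm em during kinetic caspase 1 run (50 nM enzyme, 5 uM Ac-WEHD-AFC, HEPES pH 7.5, 10 mM DTT). Titration up to 57 uM; baseline from regression intercept, normalized to AFC standard curve.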
A488 autofl: A488 region autofluorescence. compound autofluorescence, A488 spectral region, dye equivalency; stronger effect = higher value. max dye equivalency, M. 59,000 tested, 0.1% active. AID 591; active = above 10 nM dye equivalent; inconclusive = 1 to 10 nM; inactive = 1 nM or less; about half of its hits are not listed in these tables;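 note: highest value over a series up to 38 µM; compound alone in buffer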
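Readout is A488 dye-equivalent concentration, calibrated by a per-plate six-point Alexa 488 series. Compounds in 100 mM Tris buffer pH 8.0 were incubated 15 min at room temperature. Plates were imaged using 480 nm excitation/540 nm emission filters.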
A647 fluor: compound fluoresces in the A647 spectral region; Compound fluorescence, A647 channel (570/671 nm), Tris buffer; max dye-equivalent concentration, M; 59,000 tested, under 10 active; AID 592; active means above 1 µM dye equivalent; inconclusive means 0.1 to 1 µM; inactive means 0.1 µM or less;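 note: values scaled relative to a standard on each plate; highest value over a series up to 38 µM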
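Each compound's intrinsic fluorescence at 570 nm excitation and 671 nm emission is measured across its concentration series in 100 mM Tris, pH 8.0, after 15 min at room temperature, and reported relative to an A647 curve.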
TSHR agonist: TSH receptor (human) agonism | HEK293-CNG-TSHR cells (CNG channel as cAMP sensor), membrane potential dye, cAMP | Potency, µM (series often up to 57.1 µM), for inactives: at the top dose activation, hits mostly activators | 73,000 tested, 0.48% active | AID 926; active = well fitted activation curve of enough size with the parental cells flat; inconclusive = any curve in the parental cells; inactive = parental cells flat and receptor cells flat or falling; note: potency is the fitted concentration of half-maximal effect; % of control where 0% means no effect; weak receptor curves with flat parental cells got no call and are not listed
Target sequence (P16473 whole entry, looked up): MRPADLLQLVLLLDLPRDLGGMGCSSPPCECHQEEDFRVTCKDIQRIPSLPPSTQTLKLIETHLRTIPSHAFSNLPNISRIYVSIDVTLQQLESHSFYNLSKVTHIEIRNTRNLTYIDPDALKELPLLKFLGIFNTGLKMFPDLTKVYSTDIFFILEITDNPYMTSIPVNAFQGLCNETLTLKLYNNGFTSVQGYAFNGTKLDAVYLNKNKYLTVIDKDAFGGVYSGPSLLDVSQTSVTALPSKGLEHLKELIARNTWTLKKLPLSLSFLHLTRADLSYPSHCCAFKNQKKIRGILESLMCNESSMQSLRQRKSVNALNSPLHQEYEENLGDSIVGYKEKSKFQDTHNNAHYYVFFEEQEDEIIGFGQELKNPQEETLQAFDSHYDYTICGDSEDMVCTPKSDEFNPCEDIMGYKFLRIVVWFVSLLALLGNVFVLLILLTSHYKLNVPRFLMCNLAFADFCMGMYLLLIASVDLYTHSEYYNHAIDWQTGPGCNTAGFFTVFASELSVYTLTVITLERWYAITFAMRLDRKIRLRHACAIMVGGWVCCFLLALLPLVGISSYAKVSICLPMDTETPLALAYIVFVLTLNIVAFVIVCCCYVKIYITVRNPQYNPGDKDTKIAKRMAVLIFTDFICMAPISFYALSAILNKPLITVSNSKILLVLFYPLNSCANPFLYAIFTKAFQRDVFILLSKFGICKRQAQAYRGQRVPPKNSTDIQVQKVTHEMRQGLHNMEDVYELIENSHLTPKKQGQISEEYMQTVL
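HEK 293 cells stably expressing TSHR and a modified CNG channel, with CNG-only parental cells as counterscreen, were preloaded 60 min at room temperature with membrane potential dye containing 100 uM RO 20-1724. Compound exposure was 30 min, and depolarization was read as fluorescence at 590 nm.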
* = called active by the depositor; i = inactive; ? = inconclusive; · = not tested or not shown; [ ] = remark or other dose.

molecule	TSHR agonist	A647 fluor	AID923	Resorufin fluor	A488 autofl
CCC(C)c1ccc(OCC(=O)O)cc1 (configuration not stated)	?	1e-09	0.8%	i	i
COc1ccc(NC(=O)N2CC[C@@]3(CCCN(C(=O)c4cnccn4)C3)C2)cc1	12%	2.2e-08	-1.1%	i	i
O=[N+]([O-])c1ccc2c(c1)c(S(=O)(=O)O)cc1nonc12	?	4.8e-08	-4.0%[11.5 µM]	i	i
C=CCn1c(SCc2ccc(C#N)cc2)nnc1-c1cccc(Cl)c1	?	2.6e-08	1.2%	i	i
CC1=Nn2c(nnc2-c2ccccn2)SC1	?	3.7e-08	-1.2%	i	i
C=CCn1c(=O)c2c(nc3n2CCS3)n(C)c1=O	-8%	1e-09	0.2%	i	i
COc1ccc2ccccc2c1C1CC(=O)N2CN(Cc3ccco3)CSC2=C1C#N (configuration not stated)	?	·	0.4%	·	·
COc1ccc(C2C(=O)N(C3CCCCCC3)CC(=O)N2Cc2ccccc2)cc1OC (configuration not stated)	0%	1e-09	-0.4%	i	i
COc1cccc(-c2nc(N3CCN(C)CC3)c3ccccc3n2)c1	·	2.1e-08	2.9%	i	i
COCCN(C(=O)CCC(=O)Nc1ccccn1)C(C(=O)NCCC(C)C)c1ccc(OC)cc1 (configuration not stated)	-5%	1.4e-09	-0.7%	i	i
O=C(CSc1nc(-c2ccco2)cc(C(F)(F)F)n1)NCc1cccs1	12%	2.2e-08	-0.2%	i	i
CCCn1c(C)nc2c(N(C)CCN(C)C)nc(C)nc21	5%	·	1.6%	·	·
Cc1cc(C)c2cc(CN(CCO)Cc3nnnn3Cc3ccccc3)c(=O)[nH]c2c1	?	8.3e-09	1.2%	i	i
CCCC(=O)Nc1cccc(NC(=O)c2ccc3c(c2)OCCO3)c1	2%[11.4 µM]	2.4e-08	0.5%	i	i
CCC(C)[C@H](NC(=O)NCCCN1CCOCC1)C(=O)OC (some centres not stated)	1%	1.9e-08	2.3%	i	i
Cc1cc(C(=O)CN2C(=O)c3ccccc3S2(=O)=O)c(C)n1CC1CCCO1 (configuration not stated)	2%	1.8e-09	0.6%	i	i
CS(=O)(=O)N(Cc1ccccc1)c1ccccn1	7%	·	-0.1%	·	·
O=C(CN1C(=O)c2ccccc2S1(=O)=O)N1CCc2ccccc21	-9%	2.6e-08	-0.7%	i	i
Cc1cccc2cc(CN(CCCO)C(=O)Nc3cccc(Cl)c3)c(=O)[nH]c12	1%	5.6e-08	-1.0%	i	i
O=C(c1ccccc1-c1nc(-c2ccc(F)cc2)no1)N1CCCC1	23%	2.2e-09	0.3%	i	i
COc1ccc(CC(=O)Nc2nc3n(n2)C(c2ccccc2)CC(=O)N3)cc1OC (configuration not stated)	15%	5.2e-09	-0.8%	i	i
O=C1COc2ccc3ccccc3c2CN1	-1%	1e-09	2.0%	i	i
C=CCc1cccc(CNc2nc3ccccc3n2CCC)c1O	7%	3.8e-08	-0.4%	i	i
CCOC(=O)C1=C(C)NC2=C(C(=O)C(C(=O)OC)C(C)C2)C1c1ccc(OC)c(O)c1 (configuration not stated)	-1%	1.7e-09	2.0%	i	i
Cc1noc(C)c1S(=O)(=O)N1CCC(C(=O)N2CCN(c3ccc(Cl)cc3)CC2)CC1	12%	1e-09	-0.6%	i	i
CCOc1ccc(-c2nnc(SCC(=O)N(CC)CC)n2N)cc1	-5%[11.4 µM]	2.1e-08	-1.3%	i	i
O=C(CCc1nc2ccccc2[nH]c1=O)OCC(=O)N1CCc2ccccc21	5%	4.1e-08	1.7%	i	i
CCCS(=O)(=O)N1CCCC(C(=O)NCCCN(C)Cc2ccccc2)C1 (configuration not stated)	6%	6.2e-09	0.0%	i	i
O=C(O)CCC(NC(=O)OCc1ccccc1)C(=O)O (configuration not stated)	0%	4.3e-08	-1.5%	i	i
Cc1nc(SCC(=O)Nc2ccc(C)c(F)c2)c2oc3ccccc3c2n1	?	2.7e-08	1.8%	i	i
Cc1cc(OCC(=O)Nc2ccncc2)ccc1Br	?	·	2.2%	·	·
Fc1ccc(N2CCN(C(c3cccs3)c3nnnn3C3CCCC3)CC2)cc1 (configuration not stated)	?	1e-09	-0.4%	i	i
CC(C)OC(=O)CSc1nnc(-c2cnccn2)n1-c1ccc(Cl)cc1	?	2.2e-08	1.5%	i	i
Cc1ccnc(N2CCC(C(=O)Nc3nnc(C)s3)CC2)n1	7%	1e-09	0.3%	i	i
COc1ccccc1CNc1ncncc1-c1cccc(C#N)c1	26%	3.2e-08	0.5%	i	i
COc1ccc(-c2cc(C(F)(F)F)nc(SCCC(=O)N3CCOCC3)n2)cc1	20µM*	3e-08	0.6%	i	i
COc1ccc(OCc2ccc(-c3nc4ccccc4c(=O)n3N)o2)cc1	?	1e-09	2.9%	i	i
O=C(NCc1cccnc1)/C(=N\O)c1ccccc1	·	3.4e-08	·	i	i
O=C(Nc1ccc(F)cc1)N1CCN(c2nc3ccccc3s2)CC1	16%	3.2e-08	0.5%	i	i
CCOC(=O)CN1C(=O)C(C)(C)Oc2ccc(C(=O)NC(C)(C)CC)cc21	4%	2.4e-08	1.3%	i	i
Cn1ncc2c(N3CCOCC3)ncnc21	6%	1e-09	3.0%	i	i
CC(=O)OC1CC(C)(C)N(OC(=O)CCCN2C(=O)c3ccccc3C2=O)C(C)(C)C1	9%	1e-09	0.8%	i	i
CCc1nc(SCC(=O)N2CCN(c3ccccc3)CC2)c2c(=O)n(C)c(=O)n(C)c2n1	-3%	·	-5.0%	·	·
O=C(C1=C(O)C(=O)N(CCOCCO)C1c1cccs1)c1cccs1 (configuration not stated)	-12%	2.9e-08	2.2%	i	i
COc1ccc(Cc2c(O)nc(SC)n(C(C)=O)c2=O)cc1	-47%[inhibitor]	1e-09	-0.2%	i	i
CC(C)(C)c1ccc(OCCn2ccccc2=O)cc1	10%	1e-09	0.8%	i	i
CCCC(=O)Nc1nc2ccc(NC(=O)c3ccc(Br)o3)cc2s1	7%	8.7e-08	-0.3%	i	i
CCOC(=O)c1cc(C)n(CCCN2CCOCC2)c1C	7%	4e-08	2.0%	i	i
O=C(c1ccccc1)c1cccn1CC(=O)N1CCN(C2CCCCC2)CC1	4%	1.4e-08	-0.5%	i	i
CCC(C(=O)OCC(=O)Nc1c(C)n(C)n(-c2ccccc2)c1=O)c1ccccc1 (configuration not stated)	-2%	2.2e-09	-1.2%	i	i

Some of these compounds in order of molecular weight, rising.
molecule	TSHR agonist	A647 fluor	AID923	Resorufin fluor	A488 autofl
Cn1ncc2c(N3CCOCC3)ncnc21	6%	1e-09	3.0%	i	i
COc1ccc(Cc2c(O)nc(SC)n(C(C)=O)c2=O)cc1	-47%[inhibitor]	1e-09	-0.2%	i	i
O=C(c1ccccc1)c1cccn1CC(=O)N1CCN(C2CCCCC2)CC1	4%	1.4e-08	-0.5%	i	i
CCC(C(=O)OCC(=O)Nc1c(C)n(C)n(-c2ccccc2)c1=O)c1ccccc1 (configuration not stated)	-2%	2.2e-09	-1.2%	i	i
CCCC(=O)Nc1nc2ccc(NC(=O)c3ccc(Br)o3)cc2s1	7%	8.7e-08	-0.3%	i	i

More compounds.
molecule	TSHR agonist	A647 fluor	AID923	Resorufin fluor	A488 autofl
O=C(NCc1ccccc1)NC1CC2CCC(C1)N2Cc1ccco1 (configuration not stated)	3%	2.2e-09	0.5%	i	i
COC(=O)c1cc(COc2ccc3c4c(c(=O)oc3c2)CCCC4)c(C)o1	13%[11.4 µM]	·	0.6%	·	·
COc1cc(S(=O)(=O)n2c(C)nc3ccccc32)ccc1F	?	2.1e-08	-3.3%	i	i
COc1ccccc1NC(=O)Cn1nnc(C(=O)Nc2ccccc2)c1N	-3%	6.7e-09	0.9%	i	i
O=C(CN1CCCCCC1)NCCc1ccc(F)cc1	?	1e-09	-0.3%	i	i
CCCCN1CC(O)=C(c2nc3ccccc3[nH]2)C1=N	15%	1.6e-08	18%	i	i
O=S(=O)(O)c1cc(N=Nc2cccc3ccccc23)c(O)c2ncccc12	-5%[11.4 µM]	3.9e-08	-0.1%[11.5 µM]	i	i
CCN1CCc2c(C#N)c(N3CCOCC3)nc(NCc3ccccc3)c2C1	·	1e-09	·	i	i
O=C(NC1CCCC1)C1CCN(S(=O)(=O)N2CCCCC2)CC1	2%	1e-09	-0.6%	i	i
Nc1ccc(-c2nc3c(Cl)c(N)ccc3[nH]2)cc1	-6%	3e-08	3.0%	i	i
COc1cccc(NC(=O)Cc2cn(C)c3ccccc23)c1	-8%	8.1e-09	-0.7%	i	i
COc1ccc(-c2noc(CSc3nc(N)c(-c4ccccc4)c(=O)[nH]3)n2)cc1	·	2.8e-08	-0.4%	i	i
Cc1ccccc1NC1=NC(C)(C)N=C(N)N1	-5%	3.8e-08	-0.9%	i	i
CC1(C)CC(=O)C(C=Nc2ccc(O)cc2)=C(O)C1	18%	1.7e-08	-0.6%	i	i
C[C@@H]1/C=C\CC(=O)OC[C@H]2O[C@@H](C=C[C@@H]2O)[C@H](C)/C=C\CC(=O)OC[C@H]2O[C@H]1C=C[C@@H]2O	-3%[11.4 µM]	·	-3.1%[11.5 µM]	·	·
O=C(NC1CCCCCC1)c1c(F)c(F)c(F)c(F)c1F	29%	·	0.4%	·	·
C=CC(C)Sc1nc2c(c(=O)n(C)c(=O)n2C)n1Cc1ccccc1Cl (configuration not stated)	15%	·	-3.0%	·	·
COC(=O)c1ccc(COc2cccc(OC)c2)o1	6%	5.6e-09	-2.8%	i	i
Cc1ccc(N2C(=O)c3n[nH]c(C)c3C2c2ccccn2)cc1 (configuration not stated)	8%	3.5e-08	0.9%	i	i
COc1cccc(N(C(=O)c2ccco2)C(C(=O)NC2CCCC2)c2cccnc2)c1 (configuration not stated)	?	1.7e-09	-0.4%	i	i
COc1cccc([C@H]2Oc3ccc(OC)cc3/C(=N\OCC[C@@H]3C=C[C@H](OC(C)=O)[C@H](COC(C)=O)O3)[C@@H]2O)c1	9%[11.4 µM]	·	0.1%[11.5 µM]	·	·
CC(C)[C@H](NC(=O)NCc1ccc(Cl)cc1)C(=O)O	?	1e-09	-0.3%	i	i
Cc1cc(N(C)C)c(C#N)c(NCc2ccccc2)n1	·	2e-08	-0.9%	i	i
CCC(=O)Nc1cc(C(F)(F)F)ccc1N1CCOCC1	21%	3.4e-08	1.5%	i	i
O=C(NCCCN1CCCC1=O)c1ccc(Cl)c(NS(=O)(=O)c2ccc(F)cc2)c1	-1%	3.4e-08	-3.7%	i	i
Cc1noc(C)c1C(=O)Nc1sc(C)c(C)c1C#N	5%	5.8e-09	-0.1%	i	i
Cc1cccc(Nc2ncccc2C(=O)O)c1C	5%	2.7e-09	-2.7%	i	i
Cn1cnc2c1c(=O)n(Cc1ccccc1)c(=O)n2C	1%	·	0.9%	·	·
COC(=O)C1=C(C)Nc2ncnn2C1c1ccco1 (configuration not stated)	0%	1e-09	1.5%	i	i
O=C1c2ccncc2C(=O)N1C1CCCCC1	0%[11.4 µM]	3.5e-08	1.6%	i	i
COc1cc(NC(=O)c2cc(-c3cccc(O)c3)on2)cc(OC)c1OC	-7%	·	-5.0%	·	·
CC12CC(NC(=O)N1CCc1ccccc1)c1ccccc1O2 (configuration not stated)	·	1e-09	-0.7%	i	i
C1=C(CCNc2ncnc3nc[nH]c23)CCCC1	24%	·	-8.9%	·	·

This is a subset; rates above refer to the full screens.
